Assay outcomes: PubChem BioAssay, several laboratories
E coli growth: E. coli growth inhibition, primary screen, OD600. Escherichia coli growth, 23 h; hits give low values. OD600 absorbance (test concentration not listed). 0.21% of 330,000 active. AID 1053175, 2014;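 active means OD600 absorbance below the run mean of sample wells minus 3.6 SD, in any replicate, cut at about 0.56 in these data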;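 further: stock transfer was 300 nL into about 60 µL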
rRNA inh HTS: reduced GFP signal of wild-type E. coli, primary screen, bacterial rRNA inhibitor project, GFP/RFP fluorescence, OD600, single point; E. coli WT GFP vs humanized-ribosome RFP mutants, 24 h; hits give low values; DMSO median 0, no signal -100; GFP signal change (wild-type ribosome), % (test concentration not listed); 1.6% of 350,000 active;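 active means significant combined selectivity score with lowered wild-type GFP, culture density cut under 30%, mutant RFP and density less affected; inactive means any of these conditions unmet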; further: one replicate is shown; some compounds called inactive have numbers as strong as hits
FGF22 binding: binders of human FGF22 protein, primary screen, FGF22 synaptogenesis inhibitor project, biophysical, thermal shift, single point; Fibroblast growth factor 22 (Homo sapiens), Q9HCT0; recombinant FGF22 thermal shift, SYPRO orange fluorescence; percent of sucrose octasulfate shift, DMSO zero; calls only at 9.99 µM; 1.5% of 340,000 active;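 active means melting point raised past a set limit in the mean and every replicate; inconclusive means no clear call; three in four hits are not shown here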
MLL AF4-AF9 inh: inhibitors of AF4 peptide binding to AF9, primary screen, biochemical, AlphaScreen, biotin-AF4 peptide, FLAG-AF9, single point; AID 651704, 2012; inhibition, % at 10 µM; 0.47% of 350,000 active; Protein AF-9 (Homo sapiens), P42568;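 active means every replicate reaching a set inhibition limit, whatever the replicate mean, cut at about 25% in these data; inconclusive means mean inhibition reaches that limit but some replicates miss it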;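 further: 0% = plate neutral control median and 100% = total signal loss; the record names both 10 and 1 µM as test concentration; the first replicate is given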
Target sequence (P42568 whole entry, looked up): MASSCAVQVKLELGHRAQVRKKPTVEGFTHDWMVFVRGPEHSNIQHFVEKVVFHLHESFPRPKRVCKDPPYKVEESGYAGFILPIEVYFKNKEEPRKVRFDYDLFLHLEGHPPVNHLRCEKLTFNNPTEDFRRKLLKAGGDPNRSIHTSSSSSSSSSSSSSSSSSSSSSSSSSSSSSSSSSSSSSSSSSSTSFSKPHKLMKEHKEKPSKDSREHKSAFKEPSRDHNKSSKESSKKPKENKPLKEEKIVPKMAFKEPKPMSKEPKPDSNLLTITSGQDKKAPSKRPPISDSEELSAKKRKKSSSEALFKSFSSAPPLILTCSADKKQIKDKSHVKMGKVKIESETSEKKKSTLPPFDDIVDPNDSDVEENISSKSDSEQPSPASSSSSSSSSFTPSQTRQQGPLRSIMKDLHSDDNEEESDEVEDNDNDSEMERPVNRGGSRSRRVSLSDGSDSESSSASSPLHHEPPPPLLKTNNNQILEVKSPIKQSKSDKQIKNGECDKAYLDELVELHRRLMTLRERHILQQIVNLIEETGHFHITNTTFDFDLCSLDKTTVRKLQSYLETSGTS
Vif A3G: inhibitors of Vif binding to APOBEC3G peptide, primary screen, biochemical, TR-FRET, GST-Vif 1-94, biotin-A3G peptide, dose response retest (AID 1117319); TR-FRET GST-Vif / biotin-A3G peptide binding; higher % means a stronger effect; test concentration not given here; strong numbers were not always called active; one-dose inhibition, %; IC50 in µM for titrated hits; 0.57% of 260,000 active; Virion infectivity factor (Human immunodeficiency virus type 1 group M subtype B (isolate …;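 active means above the screen mean plus three standard deviations and confirmed in dose response; inconclusive means results disagree or hit not tested in dose response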;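 further: Vif residues 1-94 fused to GST binding biotinylated APOBEC3G peptide 110-148; 0% = full assay without inhibitor and 100% = GST in place of GST-Vif; retest series ran down from 100 µM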
ALR inh: inhibitors of human ALR sulfhydryl oxidase, primary screen, biochemical, H2O2 detection, HRP-luminol luminescence, single point | inhibition, % (concentration not given with the values) | purified ALR, DTT oxidation | FAD-linked sulfhydryl oxidase ALR (Homo sapiens), P55789 | 3.8% of 290,000 active;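 active means mean and each replicate at 75% or more; inconclusive means only one of the two met; inactive means neither met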;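 further: stock transfer was 7.5 nL into about 7.5 µL; 0% = neutral wells and 100% = wells with inactivated enzyme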
HNF4A DNA FP: change in binding of human HNF4A to DNA, primary screen, biochemical, fluorescence polarization, FITC-DNA. 1 h. activity change, % at 10 µM. 0.3% of 360,000 active; in the data active means activity change above about 30%, passing the limit was not always enough;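 further: controls were the assay level and a saturating level of protein; the project sought stronger binding though the title names inhibitors; some compounds called inactive have numbers as strong as hits; positive values seem to mean higher polarization but the record does not say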
Target sequence (P41235 whole entry, looked up): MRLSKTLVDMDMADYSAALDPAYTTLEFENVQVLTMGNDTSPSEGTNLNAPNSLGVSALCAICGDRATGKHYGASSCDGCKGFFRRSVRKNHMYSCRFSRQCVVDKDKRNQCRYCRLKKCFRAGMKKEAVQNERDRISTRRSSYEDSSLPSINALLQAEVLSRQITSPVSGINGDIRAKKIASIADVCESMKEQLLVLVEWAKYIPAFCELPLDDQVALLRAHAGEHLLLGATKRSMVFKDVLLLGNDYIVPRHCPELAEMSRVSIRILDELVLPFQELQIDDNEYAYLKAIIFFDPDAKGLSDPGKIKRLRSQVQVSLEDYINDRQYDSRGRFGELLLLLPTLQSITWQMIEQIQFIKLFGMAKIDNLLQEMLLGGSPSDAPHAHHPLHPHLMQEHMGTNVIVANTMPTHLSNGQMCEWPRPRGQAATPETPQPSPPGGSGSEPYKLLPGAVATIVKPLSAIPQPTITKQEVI
rRNA inh HTS OD600: recorded beside rRNA inh HTS, whose call it bears; OD600 change, %; measured here: OD600 growth;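 optical density of the mix in the first replicate; 0 = DMSO median and -100 = no signal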
rRNA inh HTS RFP: also measured in rRNA inh HTS; calls as there; RFP signal change, %; measured here: RFP humanized mutant strains;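 first replicate; 0 = DMSO median and -100 = no signal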
* = called active by the depositor; i = inactive; ? = inconclusive; / = not tested or not shown; & = joins results of further samples.

mol,E coli growth,rRNA inh HTS,rRNA inh HTS OD600,rRNA inh HTS RFP,FGF22 binding,MLL AF4-AF9 inh,Vif A3G,ALR inh,HNF4A DNA FP
CCCNC(=O)Nc1ccc2c(c1)OC[C@H](C)N(Cc1ccc(-c3ccccn3)cc1)C[C@H](C)[C@@H](OC)CN(C)C2=O,/,-4,-4,9.7,i,2.4,/,/,/
O=C(N/N=C/c1cccc([N+](=O)[O-])c1)c1ccc2c(c1)OCCO2,/,/,/,/,/,/,19%,2,9.2
O=C(NC[C@H]1[C@H](c2ccccc2)[C@H](CO)N1CC1CCCC1)C1CC1,/,2,-2,-0.9,i,-3.1,/,/,/
C[C@@H]1CN([C@@H](C)CO)C(=O)c2cccc(NC(=O)c3cnccn3)c2O[C@@H]1CN(C)C(=O)Nc1cccc2ccccc12,/,1,1,3.5,i,-1.6,/,/,/
CCOc1ccc(Cl)cc1S(=O)(=O)NC1CCCC1,0.69,2,2,0.1,i,-1.0,/,-2,3.3
Cc1noc(C)c1NC(=O)N(C)C[C@H]1Oc2ccc(NC(=O)CCC(F)(F)F)cc2C(=O)N([C@H](C)CO)C[C@@H]1C,/,4&6,5&-3,-2.1&-2.2,i,-1.6&-1.2,/,2,-0.6
COc1ccc(NC(=O)N(C)C[C@@H]2OCCCC[C@@H](C)Oc3ccc(NS(=O)(=O)c4cccs4)cc3C(=O)N([C@H](C)CO)C[C@@H]2C)cc1,/,-1,-2,-1.9,i,-9.9,/,/,/
CCc1nonc1NC(=O)c1oc2cc(Br)ccc2c1C,0.67,8,8,2.7,i,-8.1,-2%,7,2.5
COc1cc(Nc2ccc(S(N)(=O)=O)cc2)c([N+](=O)[O-])nc1[N+](=O)[O-],0.65,23,13,3.7,i,-1.5,0%,74,0.3
c1ccc(N2CCN(CCc3nnc4n3CCCCC4)CC2)cc1,0.65,12,5,-0.6,i,7.1,13%,70,0.3
CN(C)CCNC(=O)COc1ccc(C23CC4CC(CC(C4)C2)C3)cc1,0.64,-53,-73,-15,i,15,/,-7,-32
Cc1cc(NC(=O)CCC(=O)N(CCC(C)C)C(C(=O)NCC2CCCO2)c2ccccc2C)no1 (centres undefined),0.67,-2,11,-1.4,i,6.0,/,-2,-0.1
COc1ccc(NC(=S)NC(=O)/C=C/c2ccc(F)cc2)cc1,0.7,9,18,0.8,i,1.0,-3%,-4,2.5
COc1cc(C(=O)OC(C)C(=O)N2CCCC2)cc2c1OCCO2 (centres undefined),0.65,/,/,/,i,0.8,/,10,1.5
C[C@H](CO)N1C[C@H](C)[C@@H](CN(C)Cc2ccncc2)Oc2ncc(C#CCN(C)C)cc2C1=O,/,4,10,-5.3,i,-0.7,/,/,/
CC(C)(C)CC(=O)Nc1cc(S(=O)(=O)N2CCCCCC2)ccc1Cl,0.68,/,/,/,i,-1.4,-4%,-11,-2.4
CC(C)NC(=O)Nc1ccc2c(c1)C(=O)N([C@@H](C)CO)C[C@H](C)[C@H](CN(C)C)OCCCC[C@@H](C)O2,/,4,17,-1.3,i,0.0,/,/,/
O=[N+]([O-])c1ccccc1/C=N\N1CCN(c2ccccc2)CC1,/,13,0,0.0,i,6.6,-2%,30,-2.6
Cc1cc(C)c(S(=O)(=O)N2CCCOC2CNC(=O)C(=O)NCc2cccs2)c(C)c1 (centres undefined),0.69,/,/,/,/,/,15%,0,4.7
CCOC(=O)C1=C(CS(=O)(=O)c2ccc(C)cc2)NC(=O)NC1c1ccc(O)c(OC)c1 (centres undefined),0.69,-27,-40,-17,i,3.9,7%,40,1.2
Cc1ccc(S(=O)(=O)N2CCN(C(=O)CN3CCc4ccccc4C3)CC2)cc1,0.69,/,/,/,/,/,3%,/,-1.4
O=C(c1ccc2c(c1)N(Cc1ccccc1)C(=O)CS2)N1CCOCC1,0.65,/,/,/,/,/,-2%,-61,0.6
CC(C)(C)c1ccc(OC(=O)N2CCOCC2)cc1,0.69,-1,4,-3.1,i,0.2,/,-10,-0.6
O=C(Nc1cccc(C(=O)NC2CC2)c1)c1ccc(Cl)c(S(=O)(=O)N2CCOCC2)c1,0.7,-6,-15,3.8,i,4.9,5%,-8,-2.5
O=C1C2C3C=CC(C3)C2C(=O)N1c1ccc(-c2nc(-c3ccccc3)nc3ccccc23)cc1 (centres undefined),/,9,-10,-3.2,i,3.8,/,/,/
CN1CCN(C(=S)c2ccc(-c3cccc(Cl)c3Cl)o2)CC1,0.57,-1,0,-2.4,i,-5.2,1%,19,1.5
Cc1ccc(NC(=O)CC(=O)c2ccc([N+](=O)[O-])cc2)cc1S(=O)(=O)Nc1cccc(Cl)c1,0.69,6,6,8.8,i,-2.8,8%,0,2.5
CCOc1ccc(N(CC(=O)Nc2cc(C)cc(C)c2)S(C)(=O)=O)cc1,0.68,-10,-2,-2.3,i,1.4,1%,-32,1.2
CC(=O)Nc1ccc(/C=N/Nc2nc3ccccc3[nH]2)cc1,/,-21*,-12*,-2.9*,i,2.1,/,/,-0.8
CCN(CC(=O)Nc1ccc(NC(C)=O)cc1)C(=O)/C=C/c1c(C)nn(-c2ccc(F)cc2)c1C,0.66,1,8,1.8,i,0.1,/,0,2.3
COc1ccc(Br)cc1/C=N/NC(=O)CN1CCCCC1,/,9,8,3.2,i,-5.5,15%,-15,-4.3
CCOC(=O)C1=C(C)NC2=C(C(=O)CC(C)(C)C2)C1c1ccc(N(C)C)cc1 (centres undefined),0.64,/,/,/,/,/,7%,66,-3.4
O=[N+]([O-])c1ccc(N2CCN(c3ccc(Cl)nn3)CC2)c(Cl)c1,0.7,/,/,/,/,/,99µM*,1,-1.4
O=C(CN1C(=O)NC2(CCCCCC2)C1=O)NCCc1ccc(F)cc1,0.68,-1,6,-2.5,i,-0.5,/,/,-2.4
O=C(CSc1nnnn1C1CC1)N1CCN(Cc2ccccc2F)CC1,0.68,-7,-2,0.4,i,-0.7,/,23,1.6
COc1cc(-c2cnc3c(NC=O)cc(-c4ccc(S(C)(=O)=O)cc4)cn23)cc(OC)c1OC,/,-2,-2,-2.4,i,5.3,/,/,1.4
CC(C)C#Cc1cnc2c(c1)C(=O)N([C@@H](C)CO)C[C@H](C)[C@@H](CN(C)C(=O)Nc1ccc(F)cc1)O2,/,-1,-8,2.3,i,-15,/,/,/
C[C@H]1CN([C@@H](C)CO)C(=O)Cc2cc(NC(=O)c3ccncc3)ccc2O[C@@H]1CN(C)S(=O)(=O)c1cn(C)cn1,/,5,0,-1.3,i,-3.1,/,/,/
COc1ccc(-c2csc(NC(=O)CCn3cnc4ccccc4c3=O)n2)cc1OC,0.7,0,1,2.0,i,-32,?,-3,1.9
NC(=O)CC(NC(=O)c1ccccc1)c1ccc(N2CCCCCC2)c([N+](=O)[O-])c1 (centres undefined),0.71,9,13,-1.2,i,0.0,/,3,1.7
CC(C)[C@H](C)NC(=O)N(C)C[C@H]1OCc2ccccc2-c2c(n(C)c3ccccc23)C(=O)N([C@@H](C)CO)C[C@@H]1C,/,-3,2,3.6,i,-1.3,/,/,/
O=C(NCCO)c1nc(C(=O)c2ccc(Cl)cc2)c2ccccc2n1,0.69,7,9,7.2,i,1.0,/,1,2.6
COC(=O)c1cccc(NC(=O)CSc2nnc(COc3cccc(C)c3)n2C)c1,0.66,/,/,/,/,/,-6%,-3,1.0
O=C(Cc1ncc(C(F)(F)F)cc1Cl)Nc1cccc(Br)c1,0.69,/,/,/,/,/,11%,7,2.0
CCOc1ccc2[nH]c(C)c(CN3CCCCC3)c(=O)c2c1,0.72,/,/,/,/,/,8%,13,2.3
Cn1cnc([N+](=O)[O-])c1Sc1nc2ccccc2[nH]1,0.67,3,10,3.5,i,0.1,-2%,99*,0.6
N#CCCn1c(Cl)nc2ccccc21,0.69,18,5,2.8,i,1.1,2%,-5,-5.9
C[C@@H]1CN([C@@H](C)CO)S(=O)(=O)c2ccc(-c3cccc(C(=O)N(C)C)c3)cc2O[C@@H]1CN(C)C(=O)Nc1ccccc1,/,-9,-6,-2.5,i,-9.6,/,/,/
CC1(c2nnnn2-c2ccc3c(c2)OCCO3)CCC(=O)N1CCc1c[nH]c2ccccc12 (centres undefined),/,0,-13,2.8,i,2.6,/,/,0.7
COc1ccccc1NC(=O)CCC(=O)OCc1cccc([N+](=O)[O-])c1,0.7,15,7,1.1,i,-1.3,-4%,-3,-1.3
Cc1ccc(S(=O)(=O)N2CCN(C(=O)COC(=O)c3cncc(Br)c3)CC2)c(C)c1,0.71,9,5,2.0,i,-6.4,2%,-4,1.9
Cc1noc(C)c1NC(=O)Nc1ccc2c(c1)CC(=O)N([C@@H](C)CO)C[C@H](C)[C@H](CN(C)Cc1ccncc1)O2,/,1,-1,0.4,i,-0.5,/,/,/
COc1cccc(CNC(=O)C2CCC(CNc3nc(=S)[nH]c4ccccc34)CC2)c1 (centres undefined),0.75,4,-4,2.2,i,-0.8,-15%,/,-0.3
CN(C)c1ncnc2c1ncn2[C@H]1CN(Cc2ccncc2)C[C@@H](CO)O1,/,18,11,0.5,i,0.5,/,/,-2.3
CC(C)OC(=O)c1ccc(N)cc1,0.68,11,11,2.8,i,-0.9,/,14,-1.5
FC(F)(F)c1cc(-c2ccccc2)nc2nc(N3CCOCC3)sc12,0.68,13,12,1.6,i,-1.9,-53%,-12,-3.8
C[C@H]1CN([C@@H](C)CO)C(=O)c2cc(NC(=O)Nc3ccccc3)ccc2O[C@@H]1CN(C)Cc1ccncc1,/,0,-2,1.1,i,5.1,/,/,/
CCCc1nn2c(=O)cc(O)nc2s1,0.71,/,/,/,/,/,4%,-11,-2.9
C[C@H](CO)N1C[C@H](C)[C@@H](CN(C)CC2CCCCC2)Oc2c(NS(=O)(=O)c3cn(C)cn3)cccc2C1=O,/,4&12,8&12,-3.0&-0.9,i,2.0&-2.9,/,-3,1.6
Cc1cccc(C)c1NC(=O)COC(=O)c1ccc2c(c1)OCO2,0.7,-1,-1,2.6,/,-7.9,-13%,-1,5.5

Remaining list, next part
mol,E coli growth,rRNA inh HTS,rRNA inh HTS OD600,rRNA inh HTS RFP,FGF22 binding,MLL AF4-AF9 inh,Vif A3G,ALR inh,HNF4A DNA FP
Cc1cc(C)nc(NC2=N[C@@H]3CCCC[C@H]3N2C(=O)Nc2cc(Cl)cc(Cl)c2)n1,0.7,7,7,-3.7,i,-4.1,/,/,2.0
C/C=C/c1ccc([C@@H]2[C@H](CO)N(Cc3ccccn3)[C@H]2CNC(C)=O)cc1,/,4,8,-2.4,i,2.2,/,/,/
CCC(C)c1ccc(NC(=S)Nc2ccc(OC)cc2C)cc1 (centres undefined),0.69,/,/,/,/,/,/,7,-6.1
Cc1cc(C)c2sc(N(CCCN(C)C)C(=O)c3ccc(S(=O)(=O)N(C)Cc4ccccc4)cc3)nc2c1,0.65,-53,-66,-21,i,5.5,-4%,-9,-1.8

Only part of the results is shown (hit frequency here may not be typical).
